From PubChem
UUG fidelity = modulators of yeast start codon fidelity, primary screen, whole organism, S. cerevisiae, single point, plate reader; hit rate 0.13% among 350,000; AID 602363, 2012; activity score, % at 18.7 µM; S. cerevisiae UUG-firefly luciferase reporter, luminescence/redox ratio;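 active means replicate mean at a twofold rise or more, about +100% in these data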;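 further: firefly luciferase made from a UUG start codon reports start codon fidelity; reporter light over untreated wells divided by growth signal over untreated wells; some hits fall short of that in this replicate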
HIV Env fusion = inhibitors of HIV-1 Env-driven cell-cell fusion, primary screen, HeLa-JRFL effector, CEM21 target cells, luciferase. inhibition, % at 12.3 µM. hit rate 1.1% among 360,000;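 active means mean replicate inhibition score of at least 50 and every replicate individually at or above 50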;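 further: 0% = plate neutral controls and 100% = maraviroc near 300 nM; one replicate is shown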
* = called active by the depositor; [ ] = another dose, or the depositor's remark. Only part of the results is shown (hit frequency here may not be typical).

Screening C[C@@H]1CN([C@H](C)CO)C(=O)c2cc(/C=C/c3ccccc3)cnc2O[C@H]1CN(C)S(=O)(=O)c1cccs1 returned UUG fidelity 6.4 and HIV Env fusion 20.1[16.7 µM].
C[C@@H]1CN([C@H](C)CO)C(=O)c2cc(NS(=O)(=O)c3cn(C)cn3)ccc2O[C@@H](C)CCCCO[C@@H]1CN(C)Cc1ccncc1 was read as UUG fidelity 6.3 and HIV Env fusion -2.2[16.7 µM].
Screening C[C@H]1CN([C@@H](C)CO)C(=O)Cc2cc(NS(=O)(=O)c3cccs3)ccc2O[C@@H]1CN(C)Cc1ccc(C(F)(F)F)cc1 returned UUG fidelity -3.4 and HIV Env fusion 4.9[16.7 µM].
For Cc1noc(C)c1NC(=O)Nc1ccc2c(c1)C(=O)N([C@H](C)CO)C[C@H](C)[C@@H](CN(C)Cc1ccc3c(c1)OCO3)OCCCC[C@H](C)O2 the results were UUG fidelity -1.2 and HIV Env fusion 3.5[16.7 µM].
C[C@@H]1CN([C@@H](C)CO)C(=O)c2cccc(NS(=O)(=O)c3ccc(Cl)cc3)c2O[C@@H]1CN(C)S(=O)(=O)c1ccccc1 was read as UUG fidelity -10.7 and HIV Env fusion -3.2[16.7 µM].
COc1ccc(CNC(=O)C[C@@H]2C=C[C@H](NC(=O)Nc3ccc4c(c3)OCO4)[C@H](CO)O2)cc1 was read as UUG fidelity -0.9 and HIV Env fusion 9.8[16.7 µM].
C[C@@H]1CN([C@@H](C)CO)C(=O)c2cc(NC(=O)C3CCCCC3)ccc2O[C@@H](C)CCCCO[C@H]1CN(C)C(=O)Nc1ccccc1 was read as UUG fidelity -6.7 and HIV Env fusion -15.0[16.7 µM].
O=C(N[C@H]1CC[C@H](CCn2cc(-c3ccccn3)nn2)O[C@@H]1CO)c1ccncc1 was read as UUG fidelity -17.4 and HIV Env fusion 14.0[16.7 µM].
Screening CNC[C@@H]1Oc2ccc(NS(=O)(=O)c3c(C)noc3C)cc2CC(=O)N([C@H](C)CO)C[C@H]1C returned UUG fidelity -3.9 and HIV Env fusion -15.6[16.7 µM].
Cc1ccc(S(=O)(=O)N(C)C[C@@H]2OCCCC[C@H](C)Oc3ccc(NS(=O)(=O)c4ccc(F)cc4)cc3C(=O)N([C@@H](C)CO)C[C@H]2C)cc1 was read as UUG fidelity -9.7 and HIV Env fusion -10.8[16.7 µM].

Next part (3 carried over from the part before).
O=C(N[C@H]1CC[C@H](CCn2cc(-c3ccccn3)nn2)O[C@@H]1CO)c1ccncc1 was read as UUG fidelity -17.4 and HIV Env fusion 14.0[16.7 µM].
Screening CNC[C@@H]1Oc2ccc(NS(=O)(=O)c3c(C)noc3C)cc2CC(=O)N([C@H](C)CO)C[C@H]1C returned UUG fidelity -3.9 and HIV Env fusion -15.6[16.7 µM].
Cc1ccc(S(=O)(=O)N(C)C[C@@H]2OCCCC[C@H](C)Oc3ccc(NS(=O)(=O)c4ccc(F)cc4)cc3C(=O)N([C@@H](C)CO)C[C@H]2C)cc1 was read as UUG fidelity -9.7 and HIV Env fusion -10.8[16.7 µM].
`CC(C)CC#Cc1cnc2c(c1)C(=O)N([C@@H](C)CO)C[C@H](C)[C@@H](CN(C)C(=O)Nc1cc(F)ccc1F)O2` gave UUG fidelity 33.5 and HIV Env fusion -2.9[16.7 µM].
Screening C[C@@H]1CCCCO[C@H](CN(C)C(=O)CCC(F)(F)F)[C@@H](C)CN([C@@H](C)CO)C(=O)c2cc(NC(=O)c3ccncc3)ccc2O1 returned UUG fidelity 29.3 and HIV Env fusion 3.2[16.7 µM].
Cc1noc(C)c1NC(=O)Nc1ccc2c(c1)C(=O)N([C@H](C)CO)C[C@@H](C)[C@H](CN(C)C(=O)NC1CCCCC1)OCCCC[C@@H](C)O2 was read as UUG fidelity 2.5 and HIV Env fusion 13.4[16.7 µM].
Cc1noc(C)c1S(=O)(=O)Nc1cccc2c1O[C@@H](CN(C)Cc1ccccc1)[C@@H](C)CN([C@@H](C)CO)C2=O was read as UUG fidelity -11.0 and HIV Env fusion -17.9[16.7 µM].
`COc1ccc(S(=O)(=O)N(C)C[C@H]2Oc3ccc(NC(=O)NC(C)C)cc3C(=O)N([C@@H](C)CO)C[C@@H]2C)cc1` gave UUG fidelity -16.5 and HIV Env fusion -6.9[16.7 µM].
C[C@H](NC(=O)C[C@H]1C[C@H]2c3cc(NC(=O)CN(C)C)ccc3O[C@H]2[C@@H](CO)O1)c1ccccc1 was read as UUG fidelity 5.2 and HIV Env fusion 5.9[16.7 µM].
`COc1ccccc1CN1C[C@H](C)[C@@H](OC)CN(C)C(=O)c2ccc(NC(C)=O)cc2OC[C@@H]1C` gave UUG fidelity -1.8 and HIV Env fusion -1.5[16.7 µM].
For C[C@H](CO)N1C[C@H](C)[C@H](CN(C)S(=O)(=O)c2cccs2)OCCCC[C@H](C)Oc2ccc(NS(=O)(=O)c3ccccc3)cc2C1=O the results were UUG fidelity 3.5 and HIV Env fusion -17.9[16.7 µM].
`O=C(NCC[C@@H]1CC[C@@H](NC(=O)C2CCCC2)[C@@H](CO)O1)c1cnccn1` gave UUG fidelity 10.0 and HIV Env fusion 18.5[16.7 µM].
Screening C[C@@H]1CN([C@@H](C)CO)C(=O)c2cc(NC(=O)Cc3ccccc3)ccc2O[C@@H](C)CCCCO[C@@H]1CN(C)Cc1ccc2c(c1)OCO2 returned UUG fidelity 33.5 and HIV Env fusion -28.4[16.7 µM].
`NCC[C@@H]1CC[C@H](NC(=O)Nc2ccc(F)cc2)[C@@H](CO)O1` gave UUG fidelity 6.7 and HIV Env fusion 7.2[16.7 µM].
`COc1ccc(NC(=O)N(C)C[C@H]2OCCCC[C@H](C)Oc3ccc(NS(=O)(=O)c4ccc(OC)cc4)cc3C(=O)N([C@H](C)CO)C[C@@H]2C)cc1` gave UUG fidelity 0.7 and HIV Env fusion -149.3[16.7 µM].
`COC(=O)C[C@@H]1C[C@@H]2c3cc(NC(=O)Nc4ccccc4)ccc3O[C@@H]2[C@H](CO)O1` gave UUG fidelity -14.2 and HIV Env fusion 14.6[16.7 µM].
`CC1C(=O)N(Cc2cn(CCC3OCCO3)nn2)CCS(=O)(=O)N1Cc1ccc(-c2ccc(Cl)cc2)cc1` (configuration not stated) gave UUG fidelity -7.3 and HIV Env fusion 26.1.
Screening O=C(N[C@@H]1CC[C@H](CCNS(=O)(=O)c2ccc(Cl)cc2)O[C@H]1CO)c1cccc(F)c1 returned UUG fidelity 5.3 and HIV Env fusion -12.7[16.7 µM].
C[C@@H]1CN([C@H](C)CO)C(=O)Cc2cc(NC(=O)Nc3cccc4ccccc34)ccc2O[C@H]1CN(C)S(=O)(=O)c1cccs1 was read as UUG fidelity 3.2 and HIV Env fusion 15.8[16.7 µM].
`C[C@@H]1CCCCO[C@H](CN(C)C(=O)c2ccccc2)[C@@H](C)CN([C@H](C)CO)C(=O)c2cc(NC(=O)Nc3ccc(C(F)(F)F)cc3)ccc2O1` gave UUG fidelity -3.6 and HIV Env fusion -8.8[16.7 µM].
`O=C(C[C@H]1C=C[C@@H](NC(=O)C2CC2)[C@@H](CO)O1)NCc1ccccc1Cl` gave UUG fidelity 7.6 and HIV Env fusion 15.3[16.7 µM].
C[C@@H]1CN([C@@H](C)CO)C(=O)c2cc(NS(=O)(=O)c3cn(C)cn3)ccc2O[C@@H](C)CCCCO[C@@H]1CN(C)Cc1ccc2c(c1)OCO2 was read as UUG fidelity 12.0 and HIV Env fusion -0.2[16.7 µM].
CCC(=O)N1C[C@@H](O)COC[C@@H]2O[C@@H](CC(=O)NCc3ccc(Oc4ccccc4)cc3)CC[C@H]21 was read as UUG fidelity 12.8 and HIV Env fusion 2.0[16.7 µM].

Next section, starting with the last two of the part before.
C[C@@H]1CN([C@@H](C)CO)C(=O)c2cc(NS(=O)(=O)c3cn(C)cn3)ccc2O[C@@H](C)CCCCO[C@@H]1CN(C)Cc1ccc2c(c1)OCO2 was read as UUG fidelity 12.0 and HIV Env fusion -0.2[16.7 µM].
CCC(=O)N1C[C@@H](O)COC[C@@H]2O[C@@H](CC(=O)NCc3ccc(Oc4ccccc4)cc3)CC[C@H]21 was read as UUG fidelity 12.8 and HIV Env fusion 2.0[16.7 µM].
`C[C@H](CO)N1C[C@H](C)[C@@H](CN(C)S(=O)(=O)c2cn(C)cn2)Oc2ccc(NS(=O)(=O)c3ccc(Cl)cc3)cc2CC1=O` gave UUG fidelity 5.0 and HIV Env fusion -4.5[16.7 µM].
For C[C@@H]1CCCCO[C@@H](CN(C)CC2CC2)[C@@H](C)CN([C@H](C)CO)C(=O)c2cc(NC(=O)c3ccncc3)ccc2O1 the results were UUG fidelity 18.8 and HIV Env fusion -9.5[16.7 µM].
Screening C[C@H]1CCCCO[C@H](CN(C)Cc2ccc3c(c2)OCO3)[C@@H](C)CN([C@@H](C)CO)C(=O)c2cc(N(C)C)ccc2O1 returned UUG fidelity 9.0 and HIV Env fusion 16.8[16.7 µM].
`COCC(=O)Nc1ccc2c(c1)C(=O)N(C)C[C@@H](OC)[C@@H](C)CN(CCc1ccccc1)[C@@H](C)CO2` gave UUG fidelity 2.4 and HIV Env fusion -8.5[16.7 µM].
Screening C[C@@H]1CN([C@@H](C)CO)C(=O)c2cc(-c3cccc(F)c3)cnc2O[C@@H]1CN(C)C returned UUG fidelity 1.4 and HIV Env fusion 2.3[16.7 µM].
`COc1ccc(CN(C)C[C@@H]2OCCCC[C@H](C)Oc3ccc(NC(=O)Nc4ccccc4)cc3C(=O)N([C@@H](C)CO)C[C@H]2C)cc1` gave UUG fidelity 33.7 and HIV Env fusion 18.5[16.7 µM].
O=C(C[C@@H]1C=C[C@@H](NC(=O)Nc2ccc(C(F)(F)F)cc2)[C@@H](CO)O1)NCc1cc(F)cc(F)c1 was read as UUG fidelity 16.5 and HIV Env fusion 14.8[16.7 µM].
For C[C@H](NC(=O)C[C@@H]1C[C@@H]2c3cc(NC(=O)CN(C)C)ccc3O[C@@H]2[C@H](CO)O1)c1ccccc1 the results were UUG fidelity 2.3 and HIV Env fusion -18.3[16.7 µM].
Screening COc1ccccc1-c1ccc2c(c1)O[C@@H](CN(C)C(=O)c1ccncc1)[C@@H](C)CN([C@@H](C)CO)S2(=O)=O returned UUG fidelity -3.4 and HIV Env fusion 9.9[16.7 µM].
For C[C@@H]1CN([C@H](C)CO)C(=O)c2cc(-c3cncnc3)cnc2O[C@@H]1CN(C)Cc1ccncc1 the results were UUG fidelity -5.9 and HIV Env fusion -8.6[16.7 µM].
`Cc1noc(C)c1S(=O)(=O)Nc1cccc2c1O[C@H](CN(C)C(=O)Nc1ccc(C(F)(F)F)cc1)[C@H](C)CN([C@@H](C)CO)C2=O` gave UUG fidelity 15.3 and HIV Env fusion -9.3[16.7 µM].
For C[C@@H]1CN([C@@H](C)CO)C(=O)c2cccc(NS(=O)(=O)c3ccccc3)c2O[C@H]1CN(C)S(=O)(=O)c1ccccc1 the results were UUG fidelity 10.3 and HIV Env fusion 0.8[16.7 µM].
`COc1ccc(NC(=O)N(C)C[C@H]2OCCCC[C@@H](C)Oc3ccc(NC(=O)Nc4ccc(C(F)(F)F)cc4)cc3C(=O)N([C@@H](C)CO)C[C@@H]2C)cc1` gave UUG fidelity -7.9 and HIV Env fusion 22.7[16.7 µM].
COc1ccc(S(=O)(=O)N[C@H]2CC[C@H](CC(=O)N3CCN(c4ccccc4)CC3)O[C@H]2CO)cc1 was read as UUG fidelity 4.0 and HIV Env fusion 7.6[16.7 µM].
`C[C@@H]1CN([C@H](C)CO)C(=O)Cc2cc(NC(=O)Cn3cnnn3)ccc2O[C@H]1CN(C)C(=O)Nc1cccc2ccccc12` gave UUG fidelity 0.4 and HIV Env fusion 16.1[16.7 µM].
`C[C@@H]1CCCCO[C@@H](CN(C)C(=O)NC2CCCCC2)[C@H](C)CN([C@@H](C)CO)C(=O)c2cc(NC(=O)NC3CCCCC3)ccc2O1` gave UUG fidelity 8.6 and HIV Env fusion 10.2[16.7 µM].
C[C@@H]1CN([C@H](C)CO)C(=O)c2cc(NC(=O)c3ccncc3)ccc2O[C@H]1CN(C)Cc1ccc2c(c1)OCO2 was read as UUG fidelity 0.5 and HIV Env fusion -3.2[16.7 µM].
`C[C@H](CO)N1C[C@H](C)[C@@H](CN(C)S(C)(=O)=O)OCCCC[C@H](C)Oc2ccc(NC(=O)Nc3ccc4c(c3)OCO4)cc2C1=O` gave UUG fidelity 14.6 and HIV Env fusion -12.3[16.7 µM].
For C[C@H]1CN([C@@H](C)CO)S(=O)(=O)c2ccc(/C=C/c3ccccc3)cc2O[C@H]1CN(C)C(=O)c1ccc2c(c1)OCO2 the results were UUG fidelity -18.1 and HIV Env fusion 1.4[16.7 µM].
For C[C@@H]1CN([C@H](C)CO)C(=O)c2cc(NC(=O)Nc3ccc4c(c3)OCO4)ccc2O[C@@H](C)CCCCO[C@@H]1CN(C)Cc1ccc2c(c1)OCO2 the results were UUG fidelity -10.3 and HIV Env fusion 0.1[16.7 µM].
For COc1ccc(S(=O)(=O)Nc2ccc3c(c2)C(=O)N([C@@H](C)CO)C[C@H](C)[C@H](CN(C)S(=O)(=O)c2ccc(F)cc2)OCCCC[C@@H](C)O3)cc1 the results were UUG fidelity -5.9 and HIV Env fusion -32.4[16.7 µM].
For Cc1ccc(-c2cnc3c(c2)C(=O)N([C@@H](C)CO)C[C@H](C)[C@H](CN(C)C(=O)Cc2ccccc2)O3)cc1 the results were UUG fidelity -1.3 and HIV Env fusion 14.7[16.7 µM].
`COCCNC(=O)C[C@@H]1C=C[C@H](NC(=O)NC2CCCCC2)[C@H](CO)O1` gave UUG fidelity 0.8 and HIV Env fusion -8.9[16.7 µM].
C[C@@H]1CCCCO[C@@H](CN(C)S(=O)(=O)c2ccc(Cl)cc2)[C@@H](C)CN([C@@H](C)CO)C(=O)c2cc(NS(=O)(=O)c3cn(C)cn3)ccc2O1 was read as UUG fidelity -4.6 and HIV Env fusion -6.1[16.7 µM].
